CBX7 inh = inhibitors of human CBX7 binding to H3K27me3 peptide; O95931; AlphaScreen His6-CBX7 / biotin-H3K27me3 peptide binding; stronger effect = lower value; 66,000 compounds, 1.1% hits; normalised signal (fraction of DMSO) (concentration not given with the values); in the data active = normalised signal below about 0.5;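 note: 100 nL library stock added to about 20 µL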
Target sequence (O95931 whole entry, looked up): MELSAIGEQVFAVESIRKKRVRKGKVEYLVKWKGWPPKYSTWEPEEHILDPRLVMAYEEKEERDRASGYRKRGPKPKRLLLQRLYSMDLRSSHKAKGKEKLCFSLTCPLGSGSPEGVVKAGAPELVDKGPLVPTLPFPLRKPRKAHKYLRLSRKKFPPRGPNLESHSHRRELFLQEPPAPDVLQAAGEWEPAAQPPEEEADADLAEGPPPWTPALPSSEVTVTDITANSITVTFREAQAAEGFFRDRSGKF
CBX7 inh z-score = second read-out of CBX7 inh, no call of its own (marks repeat the call); z-score; measured here: z-score of CBX7 signal; some inactives read as strong as hits; reference of the scale not given here;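 same signal on another scale; lower means less binding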
* hit, by the source's call; & = joins results of further samples. An excerpt, so the mix of outcomes need not match the whole.

SMILES	CBX7 inh	CBX7 inh z-score
COC(=O)c1ccc(C2C=C(c3ccc(C(C)C)cc3)Nc3nnnn32)cc1 (centres undefined)	1	0.041
CCOc1ccc(CCNC(=O)C2CCN(c3nn4c(=O)cc(C)nc4s3)CC2)cc1OCC	1.1	1
O=C(Cn1nc(-c2ccc(Cl)cc2)ccc1=O)NC1CC1	1	0.068
CCN(CC)S(=O)(=O)c1cc(C(=O)Nc2ccc(Sc3ccccc3)cc2)ccc1C	1.1	5.4
COc1ccc(-c2csc(Nc3ccc(C)c(C)c3)n2)cc1F	0.78&0.68	-3.4&-4.1
O=C(NCCCN1CCN(c2cccc(Cl)c2)CC1)c1cc(-c2ccncc2)nc2ccccc12	0.69	-3.5
COc1ccc(Cn2c(=O)[nH]c3cc(C(=O)NCCCN4CCCCC4)ccc3c2=O)cc1	1.1	1.7
CSc1ccccc1NC(=O)c1nn2c(C(F)(F)F)cc(-c3ccc(F)cc3)nc2c1Cl	1.1	0.38
CCOC(=O)c1oc2ccccc2c1NC(=O)C(C)C	1	0.41
COc1ccc(NC(=O)c2cc(-c3cccs3)on2)cc1OC	0.94	-0.87
Cc1ccc2c(c1)N(C(C)C(=O)N1CCOCC1)C(=O)CO2 (centres undefined)	0.96	-1.1
Cc1ccccc1Nc1c(-c2ccc(O)cc2)nc2cnccn12	1.1	0.76
CCOC(=O)COc1nc(-c2ccccc2)nc2ccccc12	1.1	4.4
COc1ccccc1N1CCN(CC(O)COc2cc(C)c(Cl)c(C)c2)CC1 (centres undefined)	0.95	-1.6
O=C(NC1CCCC1)C1c2ccccc2C(=O)N1CCc1ccccc1 (centres undefined)	1	0.28

Two neighbouring entries from above, for reference:
SMILES	CBX7 inh	CBX7 inh z-score
COc1ccccc1N1CCN(CC(O)COc2cc(C)c(Cl)c(C)c2)CC1 (centres undefined)	0.95	-1.6
O=C(NC1CCCC1)C1c2ccccc2C(=O)N1CCc1ccccc1 (centres undefined)	1	0.28

Going on with the list.
SMILES	CBX7 inh	CBX7 inh z-score
Cc1ccc(Nc2cc(C(=O)O)c3ccccc3n2)cc1C	1	0.31
Cc1nc2cc(C(=O)NCCN3CCOCC3)ccc2n1-c1ccc(F)cc1F	1	0.47
Cc1cccc(C)c1Nc1c(-c2ccccn2)nc2ncccn12	0.011*	-0.99*
CCN1CCN(Cc2ccc(NC(=O)Nc3ccc(OC)cc3)cc2)CC1	1.1	0.083
Cc1ccc(-n2cc(-c3ccc4c(c3)OCO4)[nH]c2=O)cc1F	1	0.21
CCOc1ccc(Nc2cc(C(=O)NCc3ccc(Cl)cc3)c3ccccc3n2)cc1	1	-0.032
CCCC(=O)NC(C)C(c1cccs1)N1CCN(C)CC1 (centres undefined)	1	-0.024
O=C1CSc2ccc(C(=O)NCc3ccccc3)cc2N1	1.1	0.65
COCCNC(=O)c1ccc2c(c1)N(Cc1ccc(Cl)cc1)C(=O)c1ccccc1S2=O (centres undefined)	0.97	-1.3
Cc1cc(N2CCCCC2)n2nc(C)c(-c3ccc(Cl)cc3)c2n1	1.4	18
CCOc1ccc(CNC(=O)c2ccc3c(c2)N(CC)C(=O)c2ccccc2S3)cc1OC	1.1	0.67
Cc1ccc(C)c(Cc2c(C)nc3c(C(=O)NCc4ccc(Cl)cc4)cnn3c2C)c1	1	0.089
CC(C)c1ccc(Nc2c(-c3ccc(N(C)C)cc3)nc3cnccn23)cc1	0.86	-2.1
O=C(Nc1ccccc1)Nc1nc(-c2ccc(Oc3ccccc3)cc2)cs1	0.9	-1.8
CCN(CC)C(=O)C1(S(=O)(=O)c2ccc(Cl)cc2)CC1	1.2	1.9
CCC(=O)N1CCc2cc(S(=O)(=O)N3CCC(C)CC3)ccc21	1.1	0.6
CCCCCNc1nc(-c2ccccc2)c2c(c1C#N)CC(C)(C)OC2	1.1	3.4
O=C(NCc1nnc(SCC(=O)N2CCCC2)o1)c1c(F)cccc1Cl	0.94	-1
CCOc1ccccc1NC(=O)Cc1c(C(=O)O)[nH]c2ccccc12	0.98	-0.34
Cc1cccc(C)c1N(C)S(=O)(=O)c1ccc2[nH]cc(C(=O)NCc3ccccn3)c(=O)c2c1	1	0.45
O=C(Cn1nc(Cc2cccnc2)c2ccccc2c1=O)N1CC=C(c2ccccc2)CC1	0.97	-1
CCOC(=O)c1cccc(NC(=O)c2cnc3ccccc3n2)c1	1	0.48
O=C(NCCC1=CCCCC1)c1nnc(Cc2ccc(Cl)cc2)o1	0.99	-0.62
CCn1c(=N)n(CC(O)c2ccccc2)c2ccccc21 (centres undefined)	1	0.061
CN(C)CCNC(=O)CN1C(=O)COc2ccc(S(=O)(=O)N3CCCCCC3)cc21	1.3	9.3
COc1cc(CNCc2cccnc2)ccc1OCc1ccccc1	1.2	2
Clc1ccc2nc(-c3cccs3)c(Nc3ccc4c(c3)OCCO4)n2c1	1.2	0.21
COc1ccc2c(c1)c(/C=C/c1nc3ccccc3c(=O)n1-c1ccccc1OC)c(C)n2C	1.1	2.8
CCOc1ccccc1NC(=O)c1c(NCc2ccccn2)sc2c1CCC2	0.94	-3.2
O=C(Nc1cccc(C(F)(F)F)c1)c1cnc(N2CCN(c3ccccn3)CC2)c2ccccc12	1.1	4.4
COc1cc(C2C(C(=O)Nc3ccc(C)cn3)=C(C)NC3=C2C(=O)CCC3)cc(OC)c1OC (centres undefined)	1.1	0.77
Cc1ccc(Cn2nnc3c(=O)n(CC(=O)Nc4ccc5c(c4)OCCO5)cnc32)cc1	1	0.15
Cc1cc(N2C(=O)c3ccc(C(=O)NCCc4ccccc4)cc3C2=O)no1	1.1	2.4
CCOc1ccc(NC(=O)c2c(NC(=O)c3ccccc3F)sc3c2CCC3)cc1	1	1.5
CCOC(=O)c1[nH]c2c(c1Cc1ccccc1)C(=O)CC(c1cc(OC)ccc1OC)C2 (centres undefined)	1.1	0.5
CN(C)CCNC(=O)c1ccc2c(c1)N(Cc1ccc(C(F)(F)F)cc1)C(=O)c1ccccc1S2	1.6	2.5
COc1ccc(-n2ncc3c(NCCc4ccc(S(N)(=O)=O)cc4)ncnc32)cc1	0.99	-0.034
CCOc1ccc(CCNC2CC(=O)N(c3ccc(Cl)cc3)C2=O)cc1OCC (centres undefined)	0.93	-1
COc1ccc(-c2cc(C(=O)Nc3ccc(Cl)cc3Cl)c3ccccc3n2)cc1OC	1.1	2.4
Cc1ccc(Nc2ncc(C(=O)N3CCN(c4ccc(F)cc4)CC3)c3ccccc23)cc1Cl	1.1	4
Nc1nc2ccc(-c3nc4ccccc4[nH]3)cc2s1	1	0.04
Cc1ccc(C)c(NC(=O)CCNS(=O)(=O)c2ccc3c(c2)CCC(=O)N3)c1	1.1	1.6
O=C(CSc1nc2ccccc2o1)NC1CC1	1.1	2.2
O=C(CCN1N=C(c2ccccc2)CCC1=O)NC1CCCCCCC1	0.96	-0.69
CC(NS(=O)(=O)c1cccc2cccnc12)c1ccccc1 (centres undefined)	1	0.2

Continued (4 carried over from the part before).
SMILES	CBX7 inh	CBX7 inh z-score
Cc1ccc(C)c(NC(=O)CCNS(=O)(=O)c2ccc3c(c2)CCC(=O)N3)c1	1.1	1.6
O=C(CSc1nc2ccccc2o1)NC1CC1	1.1	2.2
O=C(CCN1N=C(c2ccccc2)CCC1=O)NC1CCCCCCC1	0.96	-0.69
CC(NS(=O)(=O)c1cccc2cccnc12)c1ccccc1 (centres undefined)	1	0.2
Cc1cccc(NC(=O)C2CCCN(S(=O)(=O)c3ccc(Br)s3)C2)c1C (centres undefined)	1.2	1.6
C=CCNC(=O)C1CC(=O)N(c2ccc(OCC(=O)Nc3cccc(OC)c3)cc2)C1 (centres undefined)	1	0.93
O=c1[nH]cnc2nc(-c3cccc(F)c3)c(-c3cccc(F)c3)nc12	0.98	-0.12
O=C(NCCCN1CCCC1)c1cc(=O)[nH]c2ccc(S(=O)(=O)N3CCCCC3)cc12	0.99	-0.08
Cc1nc2cc(-c3cccc(F)c3)nn2c(C)c1CCC(=O)Nc1ccc(Cl)cc1	0.99	-0.077
COc1cc(CN2CCN(Cc3ccc(SC)cc3)CC2)cc(OC)c1OC	0.87	-1.5
CCCCCCNC(=O)c1ccc2c(c1)NC(=O)c1ccccc1S2	1	0.34
Cc1ccc2cc(CCNC(=O)Cc3ccccc3)c(=O)[nH]c2c1	1.1	3
Nc1ccc2nc(SCC(=O)c3ccccc3)sc2c1	1.1	2.1
COc1ccc(N2Cc3cccc(C(=O)Nc4cccc(Cl)c4C)c3C2=O)cc1	0.95	-1.2
CCCCCCc1ccc(-c2ccc(C#N)cn2)cc1	1.4	3.3
Cc1ccc2c(c1)N(CCC(=O)NCCCN1CCOCC1)C(=O)C(C)O2 (centres undefined)	0.88	-1.6
Brc1ccc(-c2nc(-c3ccncc3)no2)cc1	1.1	2.2
CCOc1ccc(-c2nnc(Nc3ccc(Cl)cc3)c3ccccc23)cc1	0.87	-0.59
CCOCCCNC(=O)Cc1cn(C)c2ccccc12	1	0.45
COCCNC(=O)c1sc2ncn(CC(=O)Nc3ccccc3OC)c(=O)c2c1C	0.86	-1.5
CCc1ccc(CN(C(=O)C(C)Oc2cc(C)ccc2C(C)C)C2CCS(=O)(=O)C2)cc1 (centres undefined)	0.9	-1.3
c1ccc(-c2noc(-c3ccc4ccccc4c3)n2)cc1	1.2	1.8
Cc1ccc(Cn2c(COc3ccccc3)nc3ccccc32)cc1	1.1	2.6
CCOC(=O)c1cnc2cc(C(F)(F)F)ccc2c1Nc1ccc(Oc2ccccc2)cc1	0.56	-7.7
Cc1ccccc1NC(=O)C(=O)NCCCN1CCOCC1	0.99	-0.56
CC1CCc2c(C(=O)NC(C)CCc3ccccc3)csc2C1 (centres undefined)	1.2	6.8
CCc1cccc(OCC(=O)Nc2ccc(S(=O)(=O)Nc3nc(C)cc(C)n3)cc2)c1	0.94	-2.3
Cc1cc2ccccc2c(=O)n1CC(=O)NCC(=O)N1CCN(c2ccccc2F)CC1	1	0.77
Cc1ccc(-c2cc(C(=O)Nc3ccc(F)cc3)c3ccccc3n2)cc1C	0.85	-1.1
COc1cc2c(cc1OC)C(c1ccc(F)c(Br)c1)CC(=O)N2 (centres undefined)	0.97	-1.3
O=C(NCCc1ccccc1)C1CCN(S(=O)(=O)c2cccnc2)CC1	0.98	-0.64
CCOC(=O)N1CCN(C(=O)CC2C(=O)N(Cc3ccccc3)C(C)c3nc4ccccc4n32)CC1 (centres undefined)	1	0.64
CCCc1ncc(C(O)c2ccc(OC)cc2)n1C (centres undefined)	1.1	1.9
CCC(=O)N1CCc2cc(S(=O)(=O)NCCC(=O)Nc3ccccc3C)ccc21	1	0.013

Record cards, as listed above.
`CCC(=O)N1CCc2cc(S(=O)(=O)NCCC(=O)Nc3ccccc3C)ccc21` is listed as CBX7 inh = 1; CBX7 inh z-score = 0.013
`O=C(NCCc1ccccc1)C1CCN(S(=O)(=O)c2cccnc2)CC1` is listed as CBX7 inh = 0.98; CBX7 inh z-score = -0.64

Some of the entries so far, with values under each structure:
The line under a structure holds: CBX7 inh | CBX7 inh z-score
Cc1ccccc1NC(=O)C(=O)NCCCN1CCOCC1
→ 0.99 | -0.56
COCCNC(=O)c1sc2ncn(CC(=O)Nc3ccccc3OC)c(=O)c2c1C
→ 0.86 | -1.5
CCC(=O)N1CCc2cc(S(=O)(=O)NCCC(=O)Nc3ccccc3C)ccc21
→ 1 | 0.013
COc1cc2c(cc1OC)C(c1ccc(F)c(Br)c1)CC(=O)N2 (centres undefined)
→ 0.97 | -1.3

Carrying on.
SMILES	CBX7 inh	CBX7 inh z-score
O=C(NCc1ccccc1Cl)C1CCCN(S(=O)(=O)c2cccs2)C1 (centres undefined)	0.98	-0.28
COc1ccc(CNC(=O)c2cc(-c3cccs3)on2)cc1	0.8	-2.8
COc1ccc(CCNC(=O)c2cc3c(s2)-c2c(C)cccc2OC3)cc1OC	1.1	2.3
COc1ccc(CC(=O)Nc2ccc(-c3noc(/C=C/c4ccccc4)n3)cc2)cc1	1.1	0.71
O=C(NCc1ccc2c(c1)OCO2)c1csc2c1CCCCC2	1.1	0.23
Cc1c(C(=O)Nc2cccc(C(F)(F)F)c2)sc2ncn(Cc3cccc(F)c3)c(=O)c12	1.1	0.86
O=C(Nc1ccc(Br)cc1)C1CCCN(S(=O)(=O)c2cccs2)C1 (centres undefined)	1	1.8
O=C(CCN1C(=O)COc2ccccc21)N1CCCC1	1	0.22
Cc1oc(-c2ccccc2F)nc1CN1CCC(C(=O)NCCCSC2CCCCC2)CC1	1	-0.032
CS(=O)(=O)c1ccc2nc(NC(=O)c3cccs3)sc2c1	0.98	-0.59
CC1CCN(S(=O)(=O)c2ccc(C(=O)Nc3ccc(-c4nc5ccccc5[nH]4)cc3)cc2)CC1	0.96	-0.84
Fc1ccccc1-c1nc(NCc2ccc(Cl)cc2)c2ccccc2n1	0.69	-0.4
CCOc1ccccc1CNC(=O)c1cnn(-c2ccccc2)c1-n1cccc1	0.97	-0.75
COc1cc2nc(CN3CCC(C(N)=O)CC3)[nH]c(=O)c2cc1OC	0.99	-0.27
Cc1ccc(Cn2nc(C)c(NC(=O)c3cc(-c4ccc5c(c4)OCO5)on3)c2C)cc1	0.78	-3.1
COc1ccc(-c2nc3ccccc3n2Cc2ccccc2Cl)cc1OC	0.9	-5
O=C(Nc1c(Cl)cccc1Cl)C1CC1(c1ccccc1)c1ccccc1 (centres undefined)	0.91	-1.1
COc1ccc(Cc2noc(-c3cccnc3)n2)cc1	0.87	-0.13
COc1ccc(-n2nc(C(=O)NCC(=O)Nc3ccc(F)cc3)c3ccccc3c2=O)cc1Cl	1.2	3.5
CCn1c(NC(=O)C23CC4CC(C2)CC(n2cnc(Cl)n2)(C4)C3)nc2ccccc21	0.92	-0.1
CCOc1ccc(N2C(=O)CC(Cc3cccc(C)c3)C2=O)cc1 (centres undefined)	1.2	1.3
CCNS(=O)(=O)c1ccc(NC(=O)c2cc(C(F)(F)F)nn2C)cc1	1.1	0.93
COc1cccc(OC)c1OCC(O)CN1C(C)CCCC1C (centres undefined)	1.1	0.9

Screening results deposited in PubChem BioAssay by several laboratories.
